Compound activity: PubChem BioAssay, National Center for Advancing Translational Sciences (NCATS)
VDR inhibitor: vitamin D3 receptor (human) inhibition; P11473; VDR-SRC2-3 peptide fluorescence polarization, 2 h; Potency, µM, without a hit: max response, negative = inhibition, actives largely listed as inhibitors; 400,000 compounds, 0.93% hits; AID 504847; active = well fitted inhibition curve with a large enough effect; inconclusive = small, poorly fitted or top-dose-only effect, or another doubt; inactive = no such curve, though single readings can be large or run the other way; note: series mostly up to about 120 µM
Target sequence (P11473 whole entry, looked up): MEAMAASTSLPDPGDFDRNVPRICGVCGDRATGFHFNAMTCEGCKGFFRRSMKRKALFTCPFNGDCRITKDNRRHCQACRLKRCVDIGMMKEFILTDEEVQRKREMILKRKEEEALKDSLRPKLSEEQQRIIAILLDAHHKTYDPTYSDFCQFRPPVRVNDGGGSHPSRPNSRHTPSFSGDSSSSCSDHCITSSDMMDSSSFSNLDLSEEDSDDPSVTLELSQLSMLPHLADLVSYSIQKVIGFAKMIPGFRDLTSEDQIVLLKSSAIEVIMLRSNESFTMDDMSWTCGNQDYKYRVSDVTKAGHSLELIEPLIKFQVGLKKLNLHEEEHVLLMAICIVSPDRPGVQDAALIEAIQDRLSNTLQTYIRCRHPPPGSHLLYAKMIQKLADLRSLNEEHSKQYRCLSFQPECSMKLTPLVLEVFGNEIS
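Measured by FP: displacement of SRC2-3 coactivator peptide from VDR by library compounds, following a two-hour ambient incubation.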
Starred values were filed as active, the others as inactive; ? = inconclusive; ! = repeats disagree. % is set by controls: 0 for no effect and ±100 for the full control effect; potency is the fitted concentration of half-maximal effect.

The first 15 records (preview)
SMILES | VDR inhibitor
O=S(=O)(N/N=C\c1c(F)cccc1Cl)c1ccc(Cl)cc1 | ?
COc1cc(CNCCC2CCOC(C)(C)C2)ccc1O (stereo not drawn) | 10%
Cc1cccc(/C(N)=N/OC(=O)c2ccc3c(c2)OCO3)c1 | 15%
CCC(=O)N1CCc2cc(Br)cc(S(=O)(=O)CCC(=O)Nc3ccc(C)c(C)c3)c21 | 3%
COc1ccc(Cl)cc1C=CC=NNS(=O)(=O)c1ccc(C)cc1 | -6%
CC(=O)N1c2ccc(S(=O)(=O)NCCC(=O)NC3CCC(C)CC3)cc2CC1C (stereo not drawn) | 1%
CCOCCCNC(=O)CN1CCN(S(=O)(=O)c2ccc3c(c2)CCC3)CC1 | -5%
Fc1cc(F)c(C2SCCN2C(=S)Nc2cccc(C(F)(F)F)c2)c(F)c1 (stereo not drawn) | 4%
O=C(NCc1cccnc1)c1cccc(OC2CCN(Cc3ccc(CO)o3)CC2)c1 | -4%
CCc1nn(CC(=O)NCCC(C)C)c(=O)c2cc3occc3n12 | 6%
CC1(C)Oc2nc3ccccc3n2/C1=C\C#N | -1%
Cc1cccc(CCNC(=O)CCCOc2cc(=O)n(C)c3ccccc23)c1 | 4%
Cc1ccc(/C=C(\C#N)c2nn(-c3ccccc3)c(N)c2C#N)cc1 | 11%
CCOC(=O)c1c(NC(=O)c2cccs2)sc2c1CCN(C(=O)OCC)C2 | -7%
Cc1cccc(-n2c(-c3csc(C(C)C)c3)n[nH]c2=S)c1 | -7%

The listing, previewed entries included:
SMILES | VDR inhibitor
O=S(=O)(N/N=C\c1c(F)cccc1Cl)c1ccc(Cl)cc1 | ?
COc1cc(CNCCC2CCOC(C)(C)C2)ccc1O (stereo not drawn) | 10%
Cc1cccc(/C(N)=N/OC(=O)c2ccc3c(c2)OCO3)c1 | 15%
CCC(=O)N1CCc2cc(Br)cc(S(=O)(=O)CCC(=O)Nc3ccc(C)c(C)c3)c21 | 3%
COc1ccc(Cl)cc1C=CC=NNS(=O)(=O)c1ccc(C)cc1 | -6%
CC(=O)N1c2ccc(S(=O)(=O)NCCC(=O)NC3CCC(C)CC3)cc2CC1C (stereo not drawn) | 1%
CCOCCCNC(=O)CN1CCN(S(=O)(=O)c2ccc3c(c2)CCC3)CC1 | -5%
Fc1cc(F)c(C2SCCN2C(=S)Nc2cccc(C(F)(F)F)c2)c(F)c1 (stereo not drawn) | 4%
O=C(NCc1cccnc1)c1cccc(OC2CCN(Cc3ccc(CO)o3)CC2)c1 | -4%
CCc1nn(CC(=O)NCCC(C)C)c(=O)c2cc3occc3n12 | 6%
CC1(C)Oc2nc3ccccc3n2/C1=C\C#N | -1%
Cc1cccc(CCNC(=O)CCCOc2cc(=O)n(C)c3ccccc23)c1 | 4%
Cc1ccc(/C=C(\C#N)c2nn(-c3ccccc3)c(N)c2C#N)cc1 | 11%
CCOC(=O)c1c(NC(=O)c2cccs2)sc2c1CCN(C(=O)OCC)C2 | -7%
Cc1cccc(-n2c(-c3csc(C(C)C)c3)n[nH]c2=S)c1 | -7%
COc1ccc2c(CC(=O)NC3CCCc4ccccc43)coc2c1 (stereo not drawn) | -6%
Cc1ccc(-c2nc3cc(Cl)ccc3o2)cc1NC(=O)c1cc2ccccc2o1 | 18%
COc1ccc(Br)cc1/C=C/C(=O)OCC(=O)NCCc1ccc(S(N)(=O)=O)cc1 | -3%
COc1ccc(CNC(=O)Cc2ccc(-c3ccccc3)cc2)cc1OC | 11%
O=C(COC(=O)c1ccc(F)cc1)Nc1cc(S(=O)(=O)N2CCOCC2)ccc1N1CCCC1 | -7%
CC1(CCc2ccccc2)NC(=S)N(c2ccc(Cl)cc2)N1 (stereo not drawn) | -18%
O=C(O)c1ccccc1COc1ccccc1Cl | 7%
CCC1SC2=NC(C)=C(C(=O)OC)C(c3ccc(C(=O)OC)cc3)N2C1=O (stereo not drawn) | 12%
COc1ccc(OC)c(CNC(=O)c2c3c(nc4ccccc24)C(=O)N(C2CCCCC2)C3)c1 | 5%
COc1ccc(CN2CC(C(=O)NCCc3ccc(C)cc3)CC2=O)cc1 (stereo not drawn) | -2%
COc1ccccc1N1CCN(c2ccc(=O)n(CC(=O)O)n2)CC1 | -23%
CCN(CC)c1ncnc2c1[nH]c1ccccc12 | 19%
CC(=O)NC(CCS(C)(=O)=O)C(=O)Nc1nc(C)cs1 (stereo not drawn) | -6%
O=C(O)c1ccccc1C(=O)c1ccc(Br)s1 | 10%
O=C(Nc1ccc(N2C(=O)C3C4C=CC(C4)C3C2=O)cc1)Nc1cccnc1 (stereo not drawn) | 19%
CCOc1cc(CNCc2cccs2)ccc1OCC(=O)NC(C)(C)C | -6%
CCCCn1c(N)c(N(CCOC)C(=O)c2cc(S(=O)(=O)N3CCCCC3)ccc2C)c(=O)[nH]c1=O | 1%
Cc1cc(/C=N/Nc2ccc([N+](=O)[O-])cn2)c(C)n1-c1ccc(C(=O)O)cc1 | -21%
COC(=O)c1cccc(C23CC4(C2)[C@H](CN(C)[C@@H]4c2ccccc2)C3c2ccc(C(F)(F)F)cc2)c1 (stereo partly drawn) | 9%
O=c1cnc2cncnc2n1Cc1ccccc1 | -17%
Cc1ccccc1N=C1SCCN1C(=O)CN1C(=O)NC2(CCCC2)C1=O | -8%
CC1CCN(S(=O)(=O)c2cccc(S(=O)(=O)N3CCCC3)c2)CC1 | -21%
CN(C)CCCNC(=O)C[C@H]1C[C@H](C(=O)N2CCOCC2)[C@@]2(C)c3[nH]c4cc(CCC(=O)N(C)C)ccc4c3CCN2C1=O | -8%
C/C(=N\N=C1\NC(=O)C(CC(=O)Nc2ccc(Cl)cc2)S1)c1ccco1 (stereo not drawn) | ?
COC(=O)c1cccc(C#CC(NP(=O)(c2ccccc2)c2ccccc2)c2ccccc2)c1 (stereo not drawn) | -12%
O=C(O)c1ccc(-c2ccccc2Cl)o1 | 141µM*!
Cc1cc(C(C)(C)C)oc1C(=O)N(CC(=O)NC1CCCC1)c1ccc(F)cc1 | 13%
O=C(CSc1nnc(NC(=O)c2ccc3c(c2)OCO3)s1)NCc1ccco1 | -9%
COc1ccc(CCNS(=O)(=O)CCNC(=O)c2ccccc2)cc1 | -9%
Cc1ccc(NC(=O)CCc2c(C)nn(-c3ccc(N4CCCCC4)nn3)c2C)cc1 | -5%
COCC(=O)N1CCC2(CC1)CN(Cc1cc(C(F)(F)F)cc(C(F)(F)F)c1)C2 | ?
COc1ccc(S(=O)(=O)N(C)C[C@H]2Oc3c(NC(=O)Nc4c(C)noc4C)cccc3C(=O)N([C@@H](C)CO)C[C@H]2C)cc1 | -2%
Cc1ccc(NC(=O)c2cc(S(=O)(=O)N3CCCCC3)ccc2N2CCOCC2)cc1S(=O)(=O)N(C)C | 15%
Cc1ccccc1C(=O)NNC(=S)NC(=O)c1ccccc1 | 1%
COc1ccccc1C(=O)NCc1nnc(SCC(=O)Nc2nccs2)n1C | 10%
COCCn1c(SCC(=O)Nc2cccc(F)c2)nc2c(c1=O)SCC2 | -8%
Cc1ccc(S(=O)(=O)c2c(O)c3ccc(C(=O)O)cc3[nH]c2=O)cc1 | 0%
CC(C)c1ccccc1NC(=O)CCc1nc2ccccc2s1 | -31%
CSCC[C@H](NS(=O)(=O)c1ccc(C)cc1)C(=O)N1CCC(C(=O)N[C@H](C(=O)O)c2ccccc2)CC1 | 8%
CC(=O)NN(O)C1N(C)C(=O)N(Cc2ccccc2)C1(C)C (stereo not drawn) | -22%
COCc1nnc(NC(=O)c2ccco2)s1 | 5%
COc1cc(OC)cc(-c2nc3ccccc3c(=O)n2OC(=O)c2ccc(Br)cc2)c1 | -12%
O=C(NC1Cc2ccccc2C1)c1cc(COc2cccc(C(F)(F)F)c2)on1 | 5%
CCOC(=O)C1CCN(c2c(NCCCN(CC)Cc3ccccc3)c(=O)c2=O)CC1 | -12%
CCOC(=O)c1[nH]c(C)c(CCC(=O)Nc2ccc(N(CC)CC)cc2C)c1C | 3%

Additional structures follow:
SMILES | VDR inhibitor
C=CCN1C(=O)OC2(CCCCC2)C1(C)O (stereo not drawn) | -6%
O=C(CSc1nc2ccccc2n1S(=O)(=O)c1cccc([N+](=O)[O-])c1)NCCc1ccccc1 | 7%
Cc1nnc2c(N(C)S(=O)(=O)c3ccccc3)nc3ccccc3n12 | -6%
CC(=O)N1CCN=C1SCc1cccc(C)c1 | -10%
CC(=O)Nc1ccc(NC(=O)CSCCc2ccccn2)cc1 | 11%
CCOc1ccc(C(F)(F)F)cc1NC(=O)c1ccc(OC)c([N+](=O)[O-])c1 | -21%
CCCCc1ccc(/C=C2\C(=O)ON=C2c2ccccc2)s1 | -24%
O=C(NCCN1CCOCC1)c1cccc(S(=O)(=O)N2CCCC2)c1 | -14%
c1cnc2c(C3NCCc4c3[nH]c3ccccc43)cccc2c1 (stereo not drawn) | 2%
O=C(O)c1ccccc1-c1ccccc1C(=O)NCc1cccnc1 | 4%
COc1ccc(/C=N/OCC(=O)N=Nc2c(O)[nH]c3ccc(Br)cc23)cc1 | -14%
O=C(Cc1ccccc1)N/N=C/C=C/c1cccc([N+](=O)[O-])c1 | -18%
CCNC(=O)CC1C(=O)N(CC)C(=S)N1NC(=O)c1ccccc1 (stereo not drawn) | -6%
CCOC(=O)CC(=O)CSc1[nH]c(=O)cc(C)c1C#N | 10%
O=C(COc1ccccc1)NC1CCSC1=O (stereo not drawn) | ?
CC(NC(=O)c1c(Cl)cnn1C)C1CCCO1 (stereo not drawn) | 14%
Cc1c(Cl)cccc1NC(=O)CCCn1cnc([N+](=O)[O-])n1 | -18%
COc1ccc(NC(=S)N(CCO)Cc2cc3c(C)cc(C)cc3[nH]c2=O)cc1 | 0%
CCC1=NC(c2ccccc2Cl)N(O)C1(C)C (stereo not drawn) | 0%
COCc1c(C(=O)N/N=C\c2cccs2)nnn1-c1nonc1N | 3%
CCOc1cc(CNCc2cc(OC)cc(OC)c2)ccc1OC | -1%
COc1ccc(OCc2nnc(SCC(=O)Nc3ccccc3C#N)o2)cc1 | -13%
COc1ccc(NC(=O)CCc2nc3cccnc3n2Cc2cccs2)c(OC)c1 | -27%
Cc1cccn2c(=O)c3cc(C(=O)N4CCN(Cc5ccccc5)CC4)sc3nc12 | -4%
O=C(NC1CCCC1)C(c1ccccc1)N(Cc1ccc(F)cc1)C(=O)c1csnn1 (stereo not drawn) | 5%
CCC(C)C(NS(=O)(=O)c1ccc(C)cc1)C(=O)NCCCN1CCOCC1 (stereo not drawn) | 20%
O=C1c2ccc(-c3ccc(F)cc3OCc3ccccc3)cc2S(=O)(=O)c2cccc(C(=O)N3CCN(c4ncc(Br)cn4)CC3)c21 | 4%
Cc1noc(C)c1COc1ccc(C(=O)OC(C)C(=O)Nc2ccc(S(=O)(=O)N3CCOCC3)cc2)cc1 (stereo not drawn) | -7%
Cc1ccc(NC(=O)c2ncn(CCCNCC(C)c3ccccc3)n2)cc1C (stereo not drawn) | -17%
Cc1cc(C)nc(NC(=O)c2c(-c3ccccc3Cl)noc2C)n1 | -12%
COc1ccc(CCC(=O)NCC(c2ccco2)N2CCc3ccccc32)cc1 (stereo not drawn) | -11%
O=C1c2ccsc2SCCN1Cc1ccc(Cl)cc1Cl | 6%
CCN(CC)CC#CCOC(=O)[C@@](O)(c1ccccc1)C1CCCCC1 | 2%
O=C(COC(=O)c1cc([N+](=O)[O-])ccc1NCc1ccccc1)NC1CCCc2ccccc21 (stereo not drawn) | -2%
CC(=O)Nc1cccc(C(=O)OCC(=O)NC2CCCCCCC2)c1 | -3%
O=C(CN1C(=O)c2ccccc2C1=O)OC(C(=O)c1ccc(Cl)cc1)c1ccccc1 (stereo not drawn) | 8%
Cc1cc(C)cc(NC(=O)Nc2ccccc2OCc2cc(=O)n3ccccc3n2)c1 | 10%
CCOCCc1nn2c(=O)cc(COC(=O)COc3ccccc3Cl)nc2s1 | 10%
Cn1c(CNC(=O)OC(C)(C)C)n[nH]c1=S | 1%
Cc1ccc(C(=O)NC(=S)NCC2CCCO2)cc1Br (stereo not drawn) | -23%
COc1ccc(CNC(=O)c2ccc(CS(=O)c3ccccc3)o2)cc1 (stereo not drawn) | 12%
CCC(=O)Nc1cccc(-c2nc3cc(C)ccc3o2)c1 | 11%
COc1ccccc1S(=O)(=O)Cc1ccc(C(=O)NCC(OC)OC)o1 | 7%
CCCCCC(=O)Nc1cccc(-c2nc3ncccc3o2)c1 | 3%
CCCc1nc2scc(-c3ccc(C)cc3)c2c(=O)n1N | -10%
CCOc1ccc(OCC)c(NC(=O)C2CCCN(c3ncccn3)C2)c1 (stereo not drawn) | 22%
Cc1cc(Nc2ncc(Cl)cc2Cl)n[nH]1 | 0%
COCCC(=O)N1CCC(Oc2ccc(C(=O)NCCc3cn[nH]c3)cc2)CC1 | 3%
C[C@H](CO)N1C[C@H](C)[C@@H](CN(C)C(=O)Nc2ccc(C(F)(F)F)cc2)Oc2ccc(NC(=O)CCC(F)(F)F)cc2C1=O | -15%
CCN(C(=O)CN(C)S(=O)(=O)c1ccc2c(c1)n(C)c(=O)c(=O)n2C)c1cccc(C)c1 | 2%
COc1cccc(C2CC(c3cccc(Br)c3)n3nc(N)nc3N2)c1 (stereo not drawn) | 5%
CCCCNc1nc2c(c(=O)n(Cc3ccc(Cl)c(Cl)c3)c(=O)n2C)n1C | -8%
O=C(CN1c2cccc3cccc(c23)S1(=O)=O)N1CCN(c2ccc(F)cc2)CC1 | 11%
Cc1cccc(C(=O)NCC(=O)N2CCN(c3ccccn3)CC2)c1 | -4%
CC1CCN(S(=O)(=O)c2ccc(C(=O)NCc3cccnc3)cc2)CC1 | 2%
O=C(COC(=O)Cc1c(F)cccc1Cl)Nc1nnc(-c2ccccc2)o1 | -19%
CN(C)c1cccc(NC2=CC(=[N+]3CCOCC3)CC(C)(C)C2)c1 | -5%
Cc1ccccc1Nc1oc(-c2ccccc2)nc1CCc1ccccc1 | 6%
C=CCNC(=O)/C(C#N)=C/c1ccc(OS(=O)(=O)c2ccc(C)cc2)c(OC)c1 | 28µM*

These rows are one share of the data (hit frequency here may not be typical).
